RE007 growth inh = less growth of the S. pombe RE007 Vpr strain; Potency, µM (doses to about 92.2 µM), for the others: at the top dose activity change, negative = less growth; S. pombe RE007 Vpr strain, BacTiter-Glo ATP luminescence, 24 h; control for the full effect not named in the record; 0.21% of 360,000 active; active = well fitted falling curve with a large enough effect; inconclusive = small, poorly fitted or top-dose-only effect; inactive = no such curve, though single readings can be large or run the other way;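 also: % is scaled to controls: 0 for no effect and ±100 for the full control effect; nearly all actives have a fitted effect of over 50% in size; the assay follows cell death caused by Vpr and the record does not say whether a fall means rescue or toxicity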
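Fission yeast RE007 carrying one integrated HIV-1 vpr copy, seeded at OD 0.01 in PMG+AL medium with 23 nL pinned compound. Grown 24 h at 30 degrees; viability read by BacTiter-Glo luminescence after 5 min.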
Cruzain inh Det = blocks cruzain activity in presence of Triton detergent. P25779. purified cruzain, Z-FR-AMC fluorescence, 0.01% Triton. Potency, µM, for inactives: max response, negative = inhibition, actives largely listed as inhibitors. 0.43% of 200,000 active; active = well fitted curve in the direction sought with a large enough effect; inconclusive = small, poorly fitted or top-dose-only effect, or another doubt; inactive = no such curve, though single readings can be large; an effect the other way counts as inactive or inconclusive;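 also: plate controls were neutral wells for no effect and buffer without enzyme for full effect; nearly all actives have a fitted effect of over 40% in size; top concentration of the series not given in the record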
Target sequence (P25779 123-467 limits assumed): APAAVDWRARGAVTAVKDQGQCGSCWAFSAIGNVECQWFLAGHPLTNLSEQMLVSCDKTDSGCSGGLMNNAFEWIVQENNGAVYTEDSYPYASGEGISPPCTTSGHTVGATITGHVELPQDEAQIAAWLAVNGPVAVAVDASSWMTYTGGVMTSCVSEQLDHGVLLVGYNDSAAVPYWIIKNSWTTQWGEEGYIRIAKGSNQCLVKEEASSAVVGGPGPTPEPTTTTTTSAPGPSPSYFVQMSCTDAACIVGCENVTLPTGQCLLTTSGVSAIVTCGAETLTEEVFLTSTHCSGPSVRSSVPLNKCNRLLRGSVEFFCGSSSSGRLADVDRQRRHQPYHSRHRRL
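Cruzain (1.5 nM) preincubated 15 min at RT with compound in 100 mM sodium acetate pH 5.5, 5 mM DTT, 0.01% Triton X-100. Reaction started with 2 uM Z-FR-AMC; AMC fluorescence (ex 360/em 450 nm) change over 60 s gave rate.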
Lassa entry inh = blocks Lassa virus binding to or entry into cells. Potency, µM (highest dose often 37.9 µM), inactives show at the highest dose activity change, negative = inhibition, hits mostly inhibitors. 1.2% of 300,000 active. Lassa virus pseudotype entry inhibition, cell reporter; control for the full effect not named in the record; active means well fitted inhibition curve with a large enough effect; inconclusive means small, poorly fitted or top-dose-only effect, or effect the other way; inactive means flat fitted curve, though single readings scatter; tested in HEK293 cells; also: % is scaled to controls: 0 for no effect and ±100 for the full control effect; nearly all actives have a fitted effect of over 50% in size; luciferase read-out
NS1 function inh = inhibitors of influenza NS1 protein function; S. cerevisiae slowed by influenza A NS1, growth recovery by OD600; Potency, µM (top dose mostly 46.1 µM), inactives show at the top dose activity, positive = more growth; 0.4% of 270,000 active; also: actives are rising curves; nearly all actives have a fitted effect of over 50% in size
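A cell-based growth assay was used: compounds that relieve NS1-induced slow growth of budding yeast raise OD600. Assay medium was yeast nitrogen base with ammonium sulphate and -URA supplement, pH 6.0, with 2% galactose.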
SARS PLpro yeast = SARS-CoV PLP inhibition in yeast; Potency, µM (titrated, usually from 32.9 µM), for inactives: at the top dose activity, positive = growth rescue; 0.19% of 330,000 active; S. cerevisiae expressing SARS-CoV PLpro, growth rescue; control for the full effect not named in the record; AID 485353; also: 0% is about no effect; nearly all actives have a fitted effect of over 55% in size; growth read by luminescence after 48 h
MARV entry inh = inhibitors of Marburg virus binding or cell entry. Marburg virus pseudotyped entry inhibition, cell reporter; control for the full effect not named in the record; about a third of the inactives were read at about 46 µM. Potency, µM (highest dose often 37.8 µM), inactives show top-dose activity change, negative = inhibition, usual class: inhibitors. 1.8% of 300,000 active. AID 540276; active = well fitted inhibition curve with a large enough effect; inconclusive = small, poorly fitted or top-dose-only effect, or effect the other way; inactive = flat fitted curve, though single readings scatter; tested in HEK293 cells; about a fifth of its hits are not listed in these tables; also: % is scaled to controls: 0 for no effect and ±100 for the full control effect; luciferase read-out
Cruzain inh noDet = cruzain (T. cruzi) inhibition without detergent; AID 1476; P25779; Potency, µM, for inactives: max response, negative = inhibition, hits mostly inhibitors; purified cruzain, Z-FR-AMC fluorescence, no detergent; 2.3% of 200,000 active; active = well fitted curve in the direction sought with a large enough effect; inconclusive = small, poorly fitted or top-dose-only effect, or another doubt; inactive = no such curve, though single readings can be large; an effect the other way counts as inactive or inconclusive;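 also: plate controls were enzyme without inhibitor for no effect and buffer without enzyme for full effect; nearly all actives have a fitted effect of over 40% in size; top concentration of the series not given in the record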
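Detergent-free condition (0.00005% Triton X-100) in acetate buffer pH 5.5 with DTT. 1.5 nM enzyme and compound were pre-mixed 15 min, then 2 uM Z-FR-AMC substrate added; reaction progress from fluorescence change between first and third reads (60 s).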
2A StopGo = lowers the luciferase signal of an FMDV 2A StopGo reporter; 1.2% of 410,000 active; AID 1159524; human cells with a luciferase reporter of 2A StopGo recoding; control for the full effect not named in the record; Potency, µM (series often up to 57.9 µM), for inactives: top-dose signal change, negative = less light; active = well fitted falling curve with a large enough effect; inconclusive = small, poorly fitted or top-dose-only effect; inactive = no such curve, though single readings can be large or run the other way; tested in HEK293T cells; also: % is scaled to controls: 0 for no effect and ±100 for the full control effect; nearly all actives have a fitted effect of over 45% in size; luciferase light after 4 h
* marks the source's active call; other numbers are inactive results; ? = inconclusive; nt = no result given; & = joins results of further samples; [ ] = dose if it differs, or a comment. Unless noted, calls follow the shape of the dose curve; as a rule, active means well fitted rising curve with a large enough effect; inconclusive means small, poorly fitted or top-dose-only effect; inactive means no such curve, though single readings can be large or run the other way. Potency is read from the fitted curve at half-maximal effect.

SMILES	RE007 growth inh	Cruzain inh Det	Lassa entry inh	NS1 function inh	SARS PLpro yeast	MARV entry inh	Cruzain inh noDet	2A StopGo
C=CCN(c1ccccc1)S(=O)(=O)c1cccc(C(=O)NCC2CCCO2)c1 (stereo not drawn)	-15%	nt	?	5%	-6%	-1%	nt	14%
COC(=O)c1ccc(CSc2nnc(-c3ccccc3)n2C)o1	3%	nt	2%	nt	0%	1%	nt	-8%
CCOC(=O)C1CCN(C(=O)CSc2nc(N)cc(=O)[nH]2)CC1	3%	nt	15%[46.1 µM]	5%	2%	-1%[46.1 µM]	nt	7%
O=C(O)CCC(=O)N1CCN(c2nc(-c3ccccc3)c3cc(Br)ccc3n2)CC1	7%	nt	-10%[46.1 µM]	-16%	0%	1%[46.1 µM]	nt	-11%
COc1cccc(-c2nc(CS(=O)(=O)CC(=O)N3CCCCC3)c(C)o2)c1	9%	nt	nt	1%	-1%	nt	nt	-19%
CCC(CO)NCC#Cc1ccccc1 (stereo not drawn)	-4%	nt	nt	2%	0%	6%[46.1 µM]	nt	-2%
C=CCc1ccc(OCCOCCOc2ccccc2[N+](=O)[O-])c(OC)c1	-1%	-2.1%	-6%	-12%	-10%	?	11%	-14%
CCOC(=O)N1CCC(NS(=O)(=O)c2ccc3c(c2)CCN3C(C)=O)CC1	7%	4.0%	?	3%	2%	?	5%	-27%
CCN(C(=O)C1CCCCC1)c1nnc(-c2cccnc2)s1	-8%	1.0%	-25%	-47%	-1%	-6%[46.1 µM]	10%	-17%
O=Cc1ccc(OC(=O)c2cc(Cl)nc3ccccc23)cc1	-4%	-6.6%	?	-15%	3%	-6%[46.1 µM]	-12%	-19%

One compound at a time, from the list above. Order of screens: RE007 growth inh	Cruzain inh Det	Lassa entry inh	NS1 function inh	SARS PLpro yeast	MARV entry inh	Cruzain inh noDet	2A StopGo
CCOC(=O)C1CCN(C(=O)CSc2nc(N)cc(=O)[nH]2)CC1 in the list: 3%	nt	15%[46.1 µM]	5%	2%	-1%[46.1 µM]	nt	7%
O=C(O)CCC(=O)N1CCN(c2nc(-c3ccccc3)c3cc(Br)ccc3n2)CC1 in the list: 7%	nt	-10%[46.1 µM]	-16%	0%	1%[46.1 µM]	nt	-11%

Further records:
SMILES	RE007 growth inh	Cruzain inh Det	Lassa entry inh	NS1 function inh	SARS PLpro yeast	MARV entry inh	Cruzain inh noDet	2A StopGo
Cn1c(C(=O)N2CCCc3ccccc32)cc2sccc21	-12%	-8.6%	4%	-34%	-14%	?	-4%	-2%
CC(=O)NC(C)C(=O)OCC(=O)c1ccc(Cl)s1 (stereo not drawn)	-1%	0.1%	-24%	8%	3%	3%	-5%	1%
CCOC(=O)C1CCN(c2c(NCc3ccc(C(=O)N(C)Cc4ccccc4)cc3)c(=O)c2=O)CC1	0%	nt	1%[46.1 µM]	nt	1%	-1%[46.1 µM]	nt	19%
Cc1ccc(NC(=S)N(CCN(C)C)C(C)c2ccco2)cc1Cl (stereo not drawn)	-3%	nt	nt	-45%	0%	nt	nt	6%
COc1ccccc1N1CCN(c2cnccn2)CC1	-21%	nt	-4%[46.1 µM]	-4%	0%	-5%[46.1 µM]	nt	3%
CCCCn1c(N)c(N(CC(C)C)C(=O)C2CC(=O)N(Cc3ccccc3)C2)c(=O)[nH]c1=O (stereo not drawn)	-7%	nt	?	nt	2%	-4%	nt	-10%
COc1cc(OC)cc(C(=O)Nc2ccc3nc4n(c(=O)c3c2)CCCCC4)c1	-14%	-8.8%	-13%[46.1 µM]	-9%	0%	?	?	-9%&-10%
Cc1cc2n(n1)CCCN2C(=O)Nc1ccc(F)c(Cl)c1	nt	-1.7%	0%[46.1 µM]	nt	nt	nt	3%	2%
CCn1c(SCC(=O)Nc2nnc(C)s2)nnc1-c1ccco1	-14%	3.7%	13%	-1%	-6%	14%	-2%	-24%
Cn1c(=O)n(C)c2cc(C(=O)Nc3ccc(Br)cc3)ccc21	11%	nt	0%	6%	-1%	-11%	nt	49%[activator]
Nc1nc2ccc(Oc3ccccc3)cc2s1	84%	-5.9%	?	-100%	-7%	?	-2%	11%
CCN1CCCC(OC(=O)C(c2ccccc2)c2ccccc2)C1 (stereo not drawn)	-5%[18.4 µM]	-0.2%	nt	nt	nt	nt	-1%	-12%&-10%
CCCCc1ccc(NC(=S)NCCc2ccc(F)cc2)cc1	-13%	nt	?	nt	-1%	?	nt	-19%
Cc1cc(C(=O)CSc2nc(N)cc(=O)[nH]2)ccc1F	1%	nt	nt	8%	-2%	nt	nt	-25%
COc1c(S(=O)(=O)NCCN2CCOCC2)ccc(Cl)c1Cl	-1%	-1.4%	8%	2%	12%	-17%	6%	nt
CC1(C)CC(NCc2ccccc2)CCO1 (stereo not drawn)	-2%	nt	?	-7%	1%	?	nt	-17%
NS(=O)(=O)c1cccc(NS(=O)(=O)c2cccc(C(F)(F)F)c2)c1	-3%	nt	20%	3%	1%	14%[46.1 µM]	nt	5%
CCOC(=O)c1sc2cc([N+](=O)[O-])cc(SCC(C)C)c2c1N	3%	-5.5%	11%	2%	3%	4%	-27%	-7%
OCC1(O)OC[C@@H](O)[C@H]1O (stereo partly drawn)	-7%	nt	nt	4%	0%	nt	nt	-5%
O=C(c1nc2ccccn2c1CN1CCCC(O)C1)N1CCN(C2CCCCC2)CC1 (stereo not drawn)	1%	nt	nt	1%	?	nt	nt	-16%
CCCCCC(=O)Nc1cc2[nH]c(=O)cc(COC)c2cc1C	7%	1.1%	-1%	16%	4%	-39%	-1%	11%
CC(C)[C@H](NC(=O)c1ccc([N+](=O)[O-])cc1Cl)C(=O)N1CCN(C/C=C/c2ccccc2)CC1	-12%	nt	?	nt	1%	?	nt	?
Cc1ccc(NC(=O)c2ccc3nc(Cc4ccccc4)oc3c2)cc1F	nt	-2.0%	-2%[46.1 µM]	nt	nt	nt	?	-13%
CCCCN(CCCC)CC(O)COc1ccc(Br)cc1 (stereo not drawn)	-3%	nt	15%	-7%	0%	?	nt	-8%
C=CCOC(=O)C1C(=O)CC(C)(O)C(C(=O)OCC=C)C1c1ccc(OCC)cc1 (stereo not drawn)	4%	-2.6%	2%	4%	-14%	-3%	?	0%

Of the compounds above, these contain four or more nitrogen atoms.
SMILES	RE007 growth inh	Cruzain inh Det	Lassa entry inh	NS1 function inh	SARS PLpro yeast	MARV entry inh	Cruzain inh noDet	2A StopGo
CCOC(=O)C1CCN(C(=O)CSc2nc(N)cc(=O)[nH]2)CC1	3%	nt	15%[46.1 µM]	5%	2%	-1%[46.1 µM]	nt	7%
O=C(O)CCC(=O)N1CCN(c2nc(-c3ccccc3)c3cc(Br)ccc3n2)CC1	7%	nt	-10%[46.1 µM]	-16%	0%	1%[46.1 µM]	nt	-11%
CCN(C(=O)C1CCCCC1)c1nnc(-c2cccnc2)s1	-8%	1.0%	-25%	-47%	-1%	-6%[46.1 µM]	10%	-17%
COc1ccccc1N1CCN(c2cnccn2)CC1	-21%	nt	-4%[46.1 µM]	-4%	0%	-5%[46.1 µM]	nt	3%
CCCCn1c(N)c(N(CC(C)C)C(=O)C2CC(=O)N(Cc3ccccc3)C2)c(=O)[nH]c1=O (stereo not drawn)	-7%	nt	?	nt	2%	-4%	nt	-10%
Cc1cc2n(n1)CCCN2C(=O)Nc1ccc(F)c(Cl)c1	nt	-1.7%	0%[46.1 µM]	nt	nt	nt	3%	2%
CCn1c(SCC(=O)Nc2nnc(C)s2)nnc1-c1ccco1	-14%	3.7%	13%	-1%	-6%	14%	-2%	-24%
O=C(c1nc2ccccn2c1CN1CCCC(O)C1)N1CCN(C2CCCCC2)CC1 (stereo not drawn)	1%	nt	nt	1%	?	nt	nt	-16%
CC(C)[C@H](NC(=O)c1ccc([N+](=O)[O-])cc1Cl)C(=O)N1CCN(C/C=C/c2ccccc2)CC1	-12%	nt	?	nt	1%	?	nt	?

High-throughput results: PubChem, National Center for Advancing Translational Sciences (NCATS)
